Compound activity as filed in PubChem.
Vaccinia mCherry – inhibitors of vaccinia virus infection (mCherry reporter signal). Vaccinia virus mCherry reporter infection, fluorescence; about a quarter of the inactives have no number. Potency, µM (top dose mostly 36.5 µM), without a hit: at the top dose activity change, negative = inhibition, actives largely listed as inhibitors. actives 0.63% (n = 310,000). AID 720579; active = well fitted inhibition curve with a large enough effect; inconclusive = small, poorly fitted or top-dose-only effect; inactive = no such curve, though single readings can be large or run the other way; tested in A549 cells; note: nearly all actives have a fitted effect of over 35% in size; inactives centre near -10
Vaccinia Venus – inhibitors of vaccinia virus (Venus reporter) | actives 0.46% (n = 330,000) | Vaccinia virus Venus reporter expression, fluorescence | Potency, µM (top dose mostly 36.5 µM), for inactives: top-dose activity change, negative = inhibition, most hits filed as inhibitors | AID 720580; active means well fitted inhibition curve with a large enough effect; inconclusive means small, poorly fitted or top-dose-only effect; inactive means no such curve, though single readings can be large or run the other way; tested in A549 cells; note: nearly all actives have a fitted effect of over 30% in size; inactives centre near -10
* hit, by the source's call; i = inactive; ? = inconclusive; . = no result given; & = joins results of further samples; [ ] = another dose, or the depositor's remark. % is set by controls: 0 for no effect and ±100 for the full control effect; potency is the fitted concentration of half-maximal effect.

SMILES	Vaccinia mCherry	Vaccinia Venus
CC(C)Oc1ccc(CNC(=O)C2CCN(c3nc4ccccc4nc3C(F)(F)F)CC2)cc1	-25.9%	-24.3%
C#CCN(C[C@@H]1[C@@H](OC(=O)NC2CCCC2)[C@@H](OC(=O)NC2CCCC2)CN(C(=O)OC(C)C)N1C(=O)OC(C)C)S(=O)(=O)c1ccc(C)cc1	-7.6%	?
O=C(CC(c1cccs1)N1Cc2ccccc2C1=O)Nc1ccc(F)c(Cl)c1 (centres undefined)	-5.4%	-8.7%
Cc1cccc(NC(=O)C2CCN(S(=O)(=O)c3ccc4c(c3)NC(=O)CO4)CC2)c1C	-12.5%	-5.9%
CC1CCN(C(=O)c2ccc3c(c2)OCCO3)CC1	i	-17.0%
Cc1cc(NC(=O)CSc2nc3c(c(=O)n2-c2ccccc2)SC(C)C3)no1 (centres undefined)	-16.6%	-4.6%
COc1cc2c(cc1NC(=O)COC(=O)/C=C/c1ccccc1)oc1ccccc12	i	-5.1%
CCOc1ccc(CNC(=O)CCC(=O)n2ncc3ccc(Cl)cc32)cc1	-8.2%	-5.6%
O=C(CC1SC(N2CCCCC2)=NC1=O)Nc1cccc(C(=O)Nc2ncccc2O)c1 (centres undefined)	-22.2%	-17.7%
Cc1cc(/C=C(/C#N)c2cccc(F)c2)c(C)n1-c1cccnc1	-1.7%	7.1%
CC(=O)O[C@@H]1[C@H]2[C@@H](C[C@@H](C)[C@@H]3C=CC(=O)[C@@]13C)OC(=O)[C@@H]2C	-27.3%	?
O=C(Cn1cc(C(F)(F)F)cc(Cl)c1=O)NCCc1ccc(Cl)cc1Cl	-26.3%	-13.6%
CCn1nc(NC(=O)c2ccncc2)c2cc3cccc(C)c3nc21	?	?
NC(=O)CSc1nnc(-c2cccnc2)n1Cc1ccccc1	-15.1%	-10.7%
CN(CC(=O)Nc1ccc(F)c(F)c1F)C(=O)C1COc2ccccc2O1 (centres undefined)	-1.9%	-21.1%
C=CCN1N=C(/C=C/c2ccccc2)CCC1=O	-3.3%	-6.9%
CN(C)S(=O)(=O)c1cccc(NC(=S)NCc2ccco2)c1	i	-14.6%
O=C(CSc1n[nH]c(-c2ccncc2)n1)Nc1ccccn1	.	-16.1%
CC(C)CN1Cc2ccccc2-n2nncc2C1	i	1.4%
O=C(c1ccc(NS(=O)(=O)c2ccc3[nH]c(=O)[nH]c3c2)cc1)N1CCN(c2ccccc2)CC1	-13.6%	-1.0%
Cc1ccc(S(=O)(=O)N2CCCN(S(=O)(=O)c3ccc4ccccc4c3)CC2)cc1	-14.9%	-9.7%
O=C(OC1CO[C@H]2O[C@@H]1[C@H](OC(=O)c1ccccc1)[C@H]2OC(=O)c1ccccc1)c1ccccc1 (some centres undefined)	i	-14.8%
COc1cc(CCC(=O)OCC(=O)Nc2c(F)cccc2F)cc(OC)c1OC	-0.2%	12.2%
COc1ccccc1N(CCC#N)C(=S)Nc1ccc(S(=O)(=O)N2CCOCC2)cc1	-9.1%	-3.2%
CCOc1ccc(CNC(=O)CS(=O)(=O)Cc2nc(-c3ccc(OC)cc3)oc2C)cc1	i	-5.9%
O=C(/C=C1\SC(=O)NC1=O)Nc1ccc(C(=O)O)cc1	-6.0%	-5.5%
COc1ccccc1S(=O)(=O)N(C)C[C@H]1OCc2cnnn2CCCC(=O)N([C@H](C)CO)C[C@H]1C	i	-9.5%
Cc1c(Cc2ccccc2)c(=O)oc2cc(O)cc(O)c12	i	-19.0%
Cc1ccc(-c2nc3ccccc3[nH]2)cn1	-6.6%	-13.9%
CC1=C(C(=O)Nc2ccccc2)C(c2cc(CN3CCOCC3)cs2)C2=C(CCCC2=O)N1 (centres undefined)	-11.5%	-12.6%
Cn1c(=O)[nH]c(=O)c2c1nc(N1CCCCCC1)n2Cc1cccc2ccccc12	.	-14.6%
COc1ccc([N+](=O)[O-])cc1NC(=O)C1CCCCC1C(=O)O (centres undefined)	i	-9.2%
Cc1ccc(NC(=O)CSc2nc3ncc(Cl)cc3[nH]2)c(C)c1	-4.4%[7.34 µM]	13.4%[7.34 µM]
CCCNC(=O)C1(C)CCCN(C(=O)c2ccc(OC)cc2OC)C1 (centres undefined)	-14.0%	-15.1%
Cc1cc(-c2ccco2)n(CC(=O)O)n1	-17.4%	-9.1%
Cn1c(CN2CCOCC2)nc2cc(NC(=O)c3ccc(F)cc3)ccc21	-3.8%	-15.3%
CCN(CC(=O)Nc1c(F)cccc1F)C(=O)c1ccc(=O)[nH]c1	-8.6%	-5.6%
COc1ccc(Br)cc1C=NNS(=O)(=O)c1ccc(C)cc1	?	?
CCOc1ccc(CC(=O)NCCc2csc(-c3ccc(Cl)cc3)n2)cc1	?	-21.6%
C1CCCC(N2CCNCC2)CC1	-16.9%	-8.0%
O=S(=O)(Cc1ccccc1)N1CCN(c2nc(-c3cccs3)nc3ccccc23)CC1	-7.8%	-4.0%
Cc1noc(C)c1NC(=O)N(C)C[C@H]1OCCCC[C@@H](C)Oc2ccc(NC(=O)Nc3ccc(F)cc3)cc2C(=O)N([C@@H](C)CO)C[C@H]1C	-10.2%	-7.2%
Cc1cc(NC(=O)CN2CCN(c3ncccn3)CC2)no1	-2.9%	-16.7%
Cc1ccc(C(=O)NC2CC(C)(C)NC(C)(C)C2)c(C)c1	.	-7.9%
COc1ccc(NS(=O)(=O)c2cccc(C(=O)NCC(c3ccc(OC)cc3)N3CCOCC3)c2)cc1 (centres undefined)	-3.4%	-11.2%
O=C(CSc1ccc(-c2ccco2)nn1)NC1CCCCC1	i	1.9%
O=C(CNC(=O)c1cc2ccccc2o1)NCc1cccs1	-7.0%	-15.7%
COc1ccc(C(C(=O)NCC2CCCO2)N(C(=O)CNC(=O)c2ccco2)c2cc(C)cc(C)c2)cc1OC (centres undefined)	2.4%	-9.3%
COc1ccccc1-c1cc2nc(C)c(CCC(=O)O)c(C)n2n1	-6.5%	-4.4%
c1ccc(-c2ncc3c(ccc4ccccc43)n2)cc1	-24.8%	-10.0%
Cc1cccc(C(CC(=O)N2CCCCC2)c2ccccc2)c1O (centres undefined)	-10.7%	-0.5%
O=C(Nc1ccc(F)cc1F)c1cccnc1	-17.7%	-13.0%
O=C1C=CC(n2cc(F)c(=O)[nH]c2=O)O1 (centres undefined)	?	?
Cc1cc(=O)c2c(C)nn(-c3ccccc3)c2[nH]1	.	0.3%
CCN(C(=O)CSc1nnc(-c2ccc(F)cc2)n1C)C1CCS(=O)(=O)C1 (centres undefined)	i	-4.2%
Cc1nn(C)cc1NC(=O)c1ccc(Br)o1	-14.4%	-5.3%
Cc1ccc(C(=O)N(NC2=NS(=O)(=O)c3ccccc32)S(=O)(=O)c2ccc(C)cc2)cc1	.	-6.4%
Cc1ccc(C(O)c2nc3ccccc3n2C(C)C)cc1 (centres undefined)	-8.2%	10.8%
OCCCn1c(CCNc2nc(-c3ccc(F)cc3)cs2)nc2cc(C(F)(F)F)ccc21	?	?
CCN(C(=O)CSc1nc2nc(C)cc(C)n2n1)C1CCS(=O)(=O)C1 (centres undefined)	i	-3.6%

2 of these compounds, set out differently.
O=C(CSc1ccc(-c2ccco2)nn1)NC1CCCCC1
  Vaccinia mCherry: i
  Vaccinia Venus: 1.9%

Cc1cccc(C(CC(=O)N2CCCCC2)c2ccccc2)c1O (centres undefined)
  Vaccinia mCherry: -10.7%
  Vaccinia Venus: -0.5%

Following part
SMILES	Vaccinia mCherry	Vaccinia Venus
COc1ccc(OCC(O)CN(CCO)CC(O)Cn2ccc3ccccc32)cc1 (centres undefined)	?	-24.1%
CCOC(=O)c1nc(Nc2ccc(N3CCC(C)CC3)cc2)c2ccccc2n1	?	-21.1%
CCOC(=O)c1sc(=S)n(-c2ccccc2Cl)c1C	2.4%	-0.2%
Cc1ccccc1C(=O)NC(=S)Nc1sc2c(c1C#N)CCCC2	-0.6%	0.0%
O=C(COc1cccc(F)c1)NNC(=O)c1cccc(-n2cccc2)c1	i	-3.7%
COc1ccc(OC)c(CN(CCN2CCOCC2)S(=O)(=O)c2ccc(NC(C)=O)cc2)c1	-0.9%[7.34 µM]	-6.0%[7.34 µM]
COc1ccc(NC(=O)Nc2ccc(C)cc2Br)c(OC)c1	-4.5%	-18.8%
O=C(NC1CCN(C(=O)N2c3ccccc3Sc3ccccc32)CC1)c1ccco1	-12.9%	-17.1%
Cc1ccc(N2CC(NC(=O)CCc3ccccc3)CC2=O)cc1 (centres undefined)	-10.7%[7.34 µM]	-5.6%[7.34 µM]
CC(=O)c1ccc2cccc3c2c1N=CN3C	-15.5%	-8.0%
Cn1cc(-c2cc3n(n2)CCC(=O)N3CCCC(=O)NCc2ccc(F)cc2)c2ccccc21	-23.2%	-21.1%
OCC1OC(n2cnc3c(N4CCCC4)ncnc32)C(O)C1O (centres undefined)	i	-14.5%
O=C(CSc1nnc(-c2ccccc2)n1CC1CCCO1)N1CCCC1 (centres undefined)	-3.1%	-6.6%
O=P(CCCCCCCCCP(=O)(c1ccccc1)c1ccccc1)(c1ccccc1)c1ccccc1	?	15.8µM*
Cc1cc(C)nc(NS(=O)(=O)c2ccc(NC(=O)c3ccc(O)cc3O)cc2)n1	i	-13.1%
Cc1ccc(-n2nc(CO)c(C(=O)NCc3ccccn3)n2)cc1	-3.9%	-4.5%
COC(=O)C1=CN(c2ccc(OC)cc2)C(N)=C(C#N)C1c1ccccc1F (centres undefined)	?	-28.8%
CC1(C(=O)NS(=O)(=O)c2ccccc2OC(F)(F)F)CCN1C(=O)Cc1ccccc1 (centres undefined)	11.0%	4.4%
COCC1CCN(Cc2nc(Cc3ccccc3Cl)no2)CC1	-3.4%	8.0%
CCN1CCN(S(=O)(=O)c2ccc(Cl)c(C(=O)Nc3cc(Cl)ccc3N3CCOCC3)c2)CC1	-8.2%	?
Cc1ccccc1S(=O)(=O)N1CC(C(=O)O)=CC[C@H]1c1ccc(Cl)cc1	i	-12.7%
COC(=O)/C=C/c1sc2nc(C)cc(C)c2c1N=CN(C)C	-1.4%	8.7%
O=C(C1CCC1)N1CCCc2cc(S(=O)(=O)N3CCN(c4cccc(Cl)c4)CC3)ccc21	-5.6%	-9.3%
O=C(N[C@@H](Cc1ccccc1)C(=O)NC1CCCCC1)c1ccco1	-13.7%	-5.4%
COc1ccccc1-c1cnc(C(O)c2ccccc2)[nH]1 (centres undefined)	-22.1%	-11.2%
CCN1CCN(c2oc(-c3ccccc3C)nc2S(=O)(=O)c2ccccc2)CC1	-10.7%	?
Cc1ccc(S(=O)(=O)NCCCCCC(=O)NC(C)(C)CO)cc1	.	-10.7%
CC(C)(C)NS(=O)(=O)c1ccc(CCC(=O)N2CCCC2)cc1	i	-16.1%
Cc1ccc(C(=O)N2c3ccccc3N(Cc3ccccc3)C(=O)C2(C)C)cc1	-4.2%	-11.6%
O=C1NC[C@H](CCCCN2CCN(CC3CCCCC3)C(=O)C2=O)N(CCc2ccccc2)C1=O	8.4%	10.4%
Cc1ccn2c(Nc3ccc(C(C)C)cc3)c(-c3ccsc3)nc2c1	?	-24.1%
Cc1cccc(CNC(=O)c2ccc3nc(Cc4ccccc4)oc3c2)c1	-11.3%	3.4%
CCN(CC)CCN(Cc1cc2cc3c(cc2[nH]c1=O)OCO3)C(=S)NCC1CCCO1 (centres undefined)	1.8%	-2.8%
Cc1ccc(NC(=O)[C@@H]2O[C@H](CO)[C@@H](O)[C@H]2O)cc1C(F)(F)F	i	2.7%
Cc1c(Cl)cccc1NC(=O)N1CCCC1	i	4.6%
COc1ccc(CCNC(=O)COC(=O)c2ccccc2NCCO)cc1OC	-11.5%	-7.7%
CCC1CCC(C(=O)NC(CCSC)C(=O)NCCN(CC(C)C)CC(C)C)CC1 (centres undefined)	-24.7%	-6.4%
Cc1ccc2c(c1)C(O)(C1COC(C)(C)CC1=O)C(=O)N2C (centres undefined)	-9.9%	-3.4%
COc1cc(NC(=O)COC(=O)c2ccccc2SCC(=O)N2CCCC2)cc(OC)c1	-1.0%	-18.6%
Cc1[nH]n(-c2ccccc2)c(=O)c1C(=O)c1ccc(Cl)cc1	i	-24.7%
O=C1CC(c2ccc(F)c(Br)c2)C2=C(CCCC2=O)N1 (centres undefined)	-19.9%	-23.3%
COc1ccc(CNC(=O)c2ccc(=O)oc2)cc1OC	-14.6%	-3.0%
Clc1cnc(Oc2ccc(Oc3ncc(Cl)cc3Cl)cc2)c(Cl)c1	-7.6%&-12.3%	-4.0%&-11.4%
NNC(=O)c1sccc1OCc1ccc(F)cc1	0.1%	3.1%
COc1cc2ncnc(NCc3ccccc3C)c2cc1OC	.	-25.0%
Cc1cccc(C)c1OCC(=O)N(Cc1ccco1)C1CCS(=O)(=O)C1 (centres undefined)	i	-10.9%
COc1ccc(Cl)cc1NC(=O)c1nnn(Cc2cccc(C(F)(F)F)c2)c1N	-31.5%	-20.7%
CN1C(=O)c2ccccc2CC12c1ccccc1C(=O)N2C (centres undefined)	i	-4.3%
